WNV NS2B-NS3 inh = inhibitors of West Nile virus NS2B-NS3 protease; z-score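 (tested at a level between 10 and 100 µM)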; 65,000 compounds, 0.18% hits; WNV NS2B-NS3 protease, fluorogenic substrate Ex360/Em465; stronger effect = lower value; P06935;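 active means z-score at -3 or under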;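 further: score is relative to mean and spread of the compound wells of a plate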
Target sequence (P06935 1371-1501 limits assumed): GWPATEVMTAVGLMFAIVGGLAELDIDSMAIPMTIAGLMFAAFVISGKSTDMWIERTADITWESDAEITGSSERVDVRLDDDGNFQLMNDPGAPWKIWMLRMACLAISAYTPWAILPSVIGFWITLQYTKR
Target sequence (P06935 1502-1679 limits assumed): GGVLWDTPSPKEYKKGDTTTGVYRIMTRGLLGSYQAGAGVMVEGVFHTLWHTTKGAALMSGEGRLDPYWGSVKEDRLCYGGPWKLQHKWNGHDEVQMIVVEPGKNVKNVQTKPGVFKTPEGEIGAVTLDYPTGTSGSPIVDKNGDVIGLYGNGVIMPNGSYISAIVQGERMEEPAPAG
Hsc70 = small molecules displacing fluorescent ligand from Hsc70 – biochemical, fluorescence polarization, primary screen (AID 568); Hsc70 fluorescence polarization, probe displacement; higher % means a stronger effect; strong numbers were not always called active; displacement, % at 20 µM, or IC50 in µM where a hit was titrated; 83,000 tested, under 10 active;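 active means displacement above 50% without optical interference and an IC50 on retest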;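 further: ATPase domain with a fluorescein-tagged ATP probe; 0% = vehicle and 100% = excess ADP; read after one hour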
MT1-MMP reporter = MT1-MMP gene expression reporter suppression – cell-based, luciferase reporter, luminescence (AID 618). calls from a first round at 10 µM; hits with a dose series show EC50 in µM. 87,000 compounds, 0.62% hits. MT1-MMP promoter luciferase reporter cells, luminescence;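 active means over half of the reporter light lost at 10 µM or EC50 under 50 µM; inactive means the rest and hits that failed the dose series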;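 further: actives suppress MT1-MMP promoter-driven transcription so potencies describe inhibitors; HT1080 fibrosarcoma cells; overnight exposure; toxic or luciferase-blocking compounds were not removed from the actives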
Active calls of the source: *; i = inactive; nt = not tested or not shown. Some of the compounds tested (hit frequency here may not be typical).

smiles	WNV NS2B-NS3 inh	Hsc70	MT1-MMP reporter
Cc1ccc(-c2nn(CCC(=O)NCC3CCCO3)c(=O)c3ccccc23)cc1 (stereo unspecified)	-0.36	5.7%	i
COC(=O)c1cc2nc(-c3ccccc3)cc(C)n2n1	-0.56	-6.2%	i
O=c1oc(-c2cccs2)nc2scc(-c3cccs3)c12	-0.57	6.0%	i
C=CCn1c(N)nc2ccccc21	0.37	1.0%	i
COc1cc(N2CCCC2)c(OC)cc1/C=C(/C#N)c1cccc(Br)c1	nt	-21%	i
CCOc1ccc(C2C=C(c3ccccc3)Nc3ncnn32)cc1 (stereo unspecified)	1.3	32%	i
COCCNC(=O)CSc1nc2nc(C)cc(C)n2n1	-1.5	-2.5%	i
COCCCNC(=O)CCc1nc2cccnc2n1Cc1ccccc1	-0.71	-3.8%	i
CCOC(=O)c1cc(C)n(-n2cnnc2)c1C	0.58	-2.2%	i
C=CCN1CC(c2nc3ccccc3n2CCOc2ccccc2)CC1=O (stereo unspecified)	-2.3	2.8%	i
COc1ccc(CCN2C(=O)CC(NCCc3ccc(S(N)(=O)=O)cc3)C2=O)cc1OC (stereo unspecified)	nt	2.4%	i
CC(C)Sc1nnc(-c2c[nH]c3ccccc23)n1C	0.48	2.3%	i
COn1c(-n2nc(C)cc2C)nc2ccccc2c1=O	1.7	-1.6%	i
COC(=O)c1c(O)c2ccccc2[nH]c1=O	nt	5.9%	i
Cc1cc(NC(=O)C2CCCN(S(=O)(=O)c3cnc[nH]3)C2)ccc1Br (stereo unspecified)	0.2	2.0%	i
O=C(Cc1cn2ccsc2n1)Nc1ccccn1	0.99	3.3%	i
Cn1c(SCc2c(F)cccc2Cl)nnc1-c1cccs1	0.49	0.7%	i
CCOC(=O)c1c(C)[nH]c(C(=O)COC(=O)CSCC(=O)N(CC)CC)c1C	0.48	3.8%	i
Cn1c(CCNC(=O)c2ccco2)nc2cc(NS(=O)(=O)c3ccccc3)ccc21	1.9	-1.8%	i
Cc1cc(C)nc(NS(=O)(=O)c2ccc(Br)cc2)n1	-1.6	-3.8%	i

2 compounds from above, limited to MT1-MMP reporter:
| mol | MT1-MMP reporter |
| --- | --- |
| Cn1c(CCNC(=O)c2ccco2)nc2cc(NS(=O)(=O)c3ccccc3)ccc21 | i |
| Cc1cc(C)nc(NS(=O)(=O)c2ccc(Br)cc2)n1 | i |

2 entries from above, with values under each structure.
Under each structure – WNV NS2B-NS3 inh | Hsc70 | MT1-MMP reporter
- Cc1ccc(-c2nn(CCC(=O)NCC3CCCO3)c(=O)c3ccccc23)cc1 (stereo unspecified)
  -0.36 | 5.7% | i
- C=CCn1c(N)nc2ccccc21
  0.37 | 1.0% | i

Additional entries.
smiles	WNV NS2B-NS3 inh	Hsc70	MT1-MMP reporter
Nc1cc(C(=O)O)ccc1N1CCCCC1	nt	3.5%	i
Cc1ccc(NC(=O)CN(C)c2ccc(S(=O)(=O)N3CCN(C)CC3)cn2)cc1	1.4	6.4%	i
c1ccc2nc(N3CCCC3)c(N3CCCC3)nc2c1	1.8	-5.8%	i
CCCCC(=O)Nc1ccc(C(=O)Nc2ccc(S(=O)(=O)N3CCCC3)cc2)cc1	-0.32	-2.2%	i
O=C(CCC1CCCCC1)Nc1c2c(nn1-c1ccc(F)cc1)CS(=O)C2 (stereo unspecified)	-0.65	-1.1%	i
CCOCCCn1c(C)nc2c(c1=O)c1nc3ccccc3nc1n2CCC1=CCCCC1	-0.69	3.7%	i
O=C1c2ccccc2C(=O)N1Cc1nc(-c2ccccn2)no1	-0.35	11%	i
Cc1nc(OCc2ccccc2)c2sc3nc4c(cc3c2n1)COC(C)(C)C4	nt	5.5%	i
O=C(NC1CCCC1)C1CCCN1C(=O)Nc1ccccc1 (stereo unspecified)	0.52	-3.9%	i
COC(=O)C1CCN(C(=O)c2ccccc2Oc2ccccc2)CC1	0.52	-0.5%	i
COc1ccc(NC(=O)C2CC2)cc1-n1cnnn1	-1.1	-5.2%	i
O=C(NCCc1ccccc1)c1cc2ncc(Br)cn2n1	0.18	0.0%	i
COc1ccc(CN2CCn3ncc(C(=O)Nc4cc(C)cc(C)c4)c3C2=O)cc1	nt	0.2%	i
Cc1cc(C(C#N)c2cccc(Cl)c2)n2ncnc2n1 (stereo unspecified)	nt	-3.9%	i
Cc1cc(C)c(NC(=O)c2ccc(S(=O)(=O)N3CCOCC3)cc2)c(C)c1	-1.6	4.8%	i
C=CCSC1=N/C(=C\c2ccc3c(c2)OCO3)C(=O)S1	-0.27	-1.0%	i
Cc1noc(/C=C/N(C)C)c1S(=O)(=O)N1CCCC(C(=O)NCc2ccc(Cl)cc2)C1 (stereo unspecified)	1.7	-2.2%	i
O=C(OC1CCS(=O)(=O)c2sccc21)c1ccccc1 (stereo unspecified)	nt	-4.7%	i
S=c1[nH]ncc2ccccc12	1.4	-0.8%	i
CC(C)(C)c1ccc(C(=O)Nc2nonc2-c2nc3ccccc3[nH]2)cc1	-0.0062	-19%	i

More compounds follow.
smiles	WNV NS2B-NS3 inh	Hsc70	MT1-MMP reporter
CCC(=O)/C=C1\Sc2ccc(OC)cc2N1CCO	-0.77	-8.3%	i
O=c1nc2n(c3sc4c(c13)CCC4)Cc1ccccc1-2	-0.24	-3.5%	i
Cc1ccc(-n2nc(C)c3c2OC(N)=C(C#N)C3c2ccco2)cc1 (stereo unspecified)	0.22	-1.5%	i
COc1ccccc1C(=O)Nc1ccc(S(=O)(=O)N2CCOCC2)cc1	-0.84	0.7%	i
N/C(=N\OC(=O)c1cc(Cl)ccc1Cl)c1cccnc1	nt	0.3%	i
CC(C)C(c1nnnn1CCc1ccccc1)N1CCOCC1 (stereo unspecified)	-0.04	-2.9%	i
COc1ccc(C(=O)N2CCN(S(=O)(=O)c3ccccc3)CC2)c(OC)c1	0.49	0.3%	i
COc1ccc(-n2nnnc2SCC(=O)c2cc3ccccc3o2)cc1	0.34	-5.6%	i
CN(C)S(=O)(=O)N1CCN(CC(O)COc2ccc(C(=O)c3ccccc3)cc2)CC1 (stereo unspecified)	-0.05	3.4%	i
COc1ccc(CNC(=O)C(NS(=O)(=O)c2ccc3c(c2)CCCN3C(C)=O)C(C)C)cc1 (stereo unspecified)	-0.91	-10%	i
Cc1ccsc1C(C(=O)NC1CCCCC1)N(C(=O)Cc1cccs1)C1CC1 (stereo unspecified)	0.4	-0.1%	i
COc1ccc(-c2nc(N)n[nH]2)cc1	nt	0.8%	i
Fc1ccc(C(c2nnnn2Cc2cccs2)N2CCN(C3CCCCC3)CC2)cc1 (stereo unspecified)	0.85	4.1%	i
Cc1cn(-c2ccc(Br)cc2)[nH]c1=O	1.2	2.0%	i
COc1ccc(C2CC(c3ccc(C)cc3)Nc3nc(N)nn32)cc1 (stereo unspecified)	0.44	-4.9%	i
N#CCCN(C(=O)c1ccco1)c1ccccc1	1.7	-2.2%	i
CC(C)C1N=C2c3ccccc3N=C(SCc3cc(=O)n4ccccc4n3)N2C1=O (stereo unspecified)	1.6	0.3%	i
Cc1cc(C(F)(F)F)nn1-c1nc(-c2ccco2)cc(C(F)(F)F)n1	-0.36	-3.9%	i
CCCCCCCCOC(=O)CCn1[nH]c(=O)c2ccccc2c1=O	nt	1.6%	i
CCOc1ccccc1NC(=O)CN(C)S(=O)(=O)c1cccc2nsnc12	-0.21	-5.1%	i

Next part:
smiles	WNV NS2B-NS3 inh	Hsc70	MT1-MMP reporter
CCOc1cc(C2C(C(=O)N3CCCCC3)=C(C)NC3=C2C(=O)CCC3)cc(Br)c1O (stereo unspecified)	-0.33	0.1%	i
CCn1nnnc1SCC(=O)c1ccc2c(c1)OCCO2	nt	1.8%	i
COC(=O)[C@H](CCSC)NC(=O)NCCc1ccc(F)cc1	nt	3.6%	i
O=C(NCc1ccccc1)c1ccc(CN2CCOCC2)cc1	-0.09	0.0%	i
CCc1ccc(NC(=O)c2cc(C(C)C)on2)cc1	-0.44	1.8%	i
COC(=O)c1ccc2c(=O)n(Cc3ccco3)c(SCC(=O)Nc3ccccc3Cl)nc2c1	1.4	-3.3%	i
CCCc1cc(=O)n2[nH]c(Cc3ccccc3)nc2n1	0.15	2.0%	i
COc1ccc(N(CC(=O)Nc2ccc3c(c2)OCCO3)S(=O)(=O)c2c(C)noc2C)cc1	0.06	0.5%	i
CCOc1ccccc1NC(=O)c1ccc(F)c(S(=O)(=O)N2CCC3(CC2)OCCO3)c1	1.8	4.8%	i
Cc1cc2cc3c(cc2nc1SCC(=O)N1c2ccccc2CC1C)OCO3 (stereo unspecified)	nt	30%	i
COc1ccc(OC)c(NC(=O)CN(c2ccc(OC)c(Cl)c2)S(C)(=O)=O)c1	2.1	5.1%	i
O=C(/C=N/O)NCCCn1ccnc1	-2.1	-5.1%	i
Cc1ccc(-n2c(=O)c3c4c(sc3n3c(C)nnc23)COC(C(C)C)C4)cc1 (stereo unspecified)	-0.96	-1.0%	i
CSCCC(NS(=O)(=O)c1ccc2c(c1)OCCO2)C(=O)NCCc1ccccn1 (stereo unspecified)	-0.85	-8.4%	i
CCN(C(=O)CN1CCN(c2ccc(O)cc2)CC1)c1c(N)n(Cc2ccccc2)c(=O)[nH]c1=O	0.15	-3.2%	i
Cc1oc(-c2ccc(Cl)cc2)nc1CN1CCC(C(=O)NCCCN2CCOCC2)CC1	-0.11	-2.2%	i
CO/N=C(/CS(=O)c1ccc(Br)cc1)c1ccc(OC)cc1 (stereo unspecified)	nt	-2.2%	i
COc1ccccc1N1CCN(CC(=O)c2c(C)n(C)c3ccccc23)CC1	-1.7	2.5%	i
CC(=O)C1C(c2ccccc2OC(F)F)NC(=O)NC1(O)C(F)(F)F (stereo unspecified)	0.71	8.3%	i
COC(=O)COc1ccc(-c2nn(C)c(=O)c3ccccc23)cc1	0.59	-2.3%	i

More entries.
smiles	WNV NS2B-NS3 inh	Hsc70	MT1-MMP reporter
COC(=O)Cc1cc(=O)n(-c2nc3ccccc3[nH]2)[nH]1	3	-0.1%	i
Cc1cccc(-c2noc(CN(C)S(=O)(=O)c3cc(Cl)ccc3Cl)n2)c1	-0.5	-11%	i
O=C(NCC1CCCO1)c1ccc(N2CCCCC2)nc1 (stereo unspecified)	0.37	8.5%	i
O=C(Nc1ccc(N2CCOCC2)cc1)C1CCCN(S(=O)(=O)c2cccc(C(F)(F)F)c2)C1 (stereo unspecified)	-0.48	-11%	i
Cc1cccc(-n2ncc3c(NCc4ccccn4)ncnc32)c1	0.45	-0.2%	i
CCCn1c(=N)c(C(=O)NCC2CCCO2)cc2c(=O)n3cccc(C)c3nc21 (stereo unspecified)	8.7	0.3%	i
Cc1ccc2nc(C)/c(=N\O)c(C)nc2c1	nt	-2.4%	i
CCn1c(COc2cccc(OC)c2)nnc1SCC(=O)Nc1ccccc1C(=O)OC	-0.02	2.9%	i
COc1nc(Nc2ccc(C(C)C)cc2)nc(OC)n1	nt	-2.8%	i
Cc1sc(N)nc1-c1cccs1	nt	1.5%	i
CC(C)OCCCNC(=O)c1cc2c(s1)CS(=O)(=O)C2	-0.49	-1.9%	i
COc1ccc(-n2ncc3c(NCCCN4CCOCC4)ncnc32)cc1	-0.4	-6.0%	i
COc1ccc(Cn2c(C)cc3c(c2=O)C(c2cccs2)C(C#N)=C(N)O3)cc1OC (stereo unspecified)	nt	-0.7%	i
c1ccc(Cn2c(CNc3nc4ccccc4n3CCN3CCOCC3)nc3ccccc32)cc1	-0.58	-9.5%	i
CC1(C)C2CCC1(C)C(NC1=NCCC1)C2 (stereo unspecified)	1.1	7.5%	i
CC(Oc1ccc(Cl)cc1Cl)C(=O)NC1CCSC1=O (stereo unspecified)	0.25	-0.9%	i
NC(=O)c1ccsc1NC(=O)COC(=O)C1CCCN1C(=O)c1cccs1 (stereo unspecified)	-0.65	-5.8%	i
COc1cc(OC)cc(-c2nnc(SCC(=O)N3CCCC3)o2)c1	0.11	-1.9%	i
CC(C)C[C@H](N)c1nnc(S(=O)(=O)Cc2ccc(F)cc2)o1	-0.94	-0.2%	i
Cc1ccc2c(c1)c1c(n2CC(O)CN2C(=O)CNC2=O)C(=O)CCC1 (stereo unspecified)	-1.3	5.2%	i

(next part)
smiles	WNV NS2B-NS3 inh	Hsc70	MT1-MMP reporter
O=C1CC(C(=O)Nc2ccccc2)N=C(N2CCOCC2)N1 (stereo unspecified)	-0.63	-0.8%	i
O=C(COc1ccc(Cl)cc1)NC1CCSC1=O (stereo unspecified)	-0.51	1.2%	i
COCCNC(=O)CS(=O)Cc1nc(-c2ccc(OC)cc2)oc1C (stereo unspecified)	-0.99	2.8%	i
COC(=O)Cn1ncc2c(C)n(Cc3ccccc3)c(C)c2c1=O	-0.69	4.1%	i
CCOCCCNC(=O)c1c[nH]c2cc(C)ccc2c1=O	0.15	-9.1%	i
Cc1cc(N2CCN(Cc3ccc4c(c3)OCO4)CC2)n2ncnc2n1	-0.33	-1.7%	i
